Screens deposited in PubChem BioAssay by PCMD.
Biofilm kill mix: mixtures killing C. albicans biofilm. C. albicans biofilm persisters + clotrimazole, fluorescence viability; primary screen in compound mixtures of four per well. inhibition, % at 7.6 µM. 0.02% of 120,000 active;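 active means inhibition above 30.3% in the primary screen of four-compound pools, then above 30% when the compound was retested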;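 further: compounds exposed to preformed 24 h biofilms for 48 h; the number belongs to the whole pool; some results filed as inactive read as strong as hits; inactives centre near 12; 0% = biofilm with clotrimazole alone and 100% = kill control; retested singly at about 60 µM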
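Probe or stimulus – Clotrimazole 50 µg/mL co-treatment · System – C. albicans biofilms · Schedule – 24 h biofilm formation, then 48 h compound exposure, 37 °C · Evaluation – percent inhibition of biofilm viability · Technique – 2-h Alamar Blue fluorescence, 535/590 nm excitation/emission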
* marks the source's active call; other numbers are inactive results; & = joins results of further samples.

SMILES	Biofilm kill mix
Cc1c(C(c2ccc(F)cc2)c2c(O)c3ccccc3oc2=O)c(=O)n(-c2ccccc2)n1C (stereo not given)	9.7
CCC1(C(=O)c2ccccc2)C2c3ccccc3OC(=O)C21C(C)=O (stereo not given)	22.4
Cc1ccc(NC(=O)c2snnc2C)cc1Cl	-2.2
CC12CN3CCN(C1)CC(C)(C3)C2=NN	10.2
c1ccc2c3c([nH]c2c1)CNCC3	6.3
COc1cccc(C(=O)C2CCCN(Cc3ccc4nonc4c3)C2)c1 (stereo not given)	5.3
CN(C)C(=O)Oc1ccc(-c2cn3cc(Cl)ccc3n2)cc1	24.7
Cc1cc(C)c(NC2=NCCCS2)c(C)c1	17.1
O=[N+]([O-])c1ccc(NCCCN2CCOCC2)c2ncccc12	5.7
O=C1CN(C(=O)COC(=O)Cc2ccccc2)c2ccccc2N1	9.0
CCC(C)N1C(=O)/C(=C\c2ccc(N3CCCCCC3)cc2)C(=O)NC1=S (stereo not given)	17.3
C=CCN1C(=O)/C(=C/c2cc(C)n(-c3ccccn3)c2C)C(=O)NC1=S	5.9
CCOP(=O)(OCC)c1cc(C)c(O)c(C(C)(C)C)c1	35.0
CC(Cc1ccccc1)NC(N)=O (stereo not given)	12.6
CC(C)CN1CCN(Cc2ccc(F)cc2Cl)CC1CCO (stereo not given)	16.0
C/C(=N\NC(=O)c1ccncc1)c1c(O)n(Cc2ccccc2)c(=O)[nH]c1=O	13.9
CCn1cc(C(=O)O)c(=O)c2ccc(C)nc21	8.1&-1.6
N#CCCn1cc(C(=O)Nc2ccccc2Br)c(-c2ccc([N+](=O)[O-])cc2)n1	14.6
COC(=O)Nc1ccc(N=C(N)N[N+](=O)[O-])cc1	-4.5
CC(NCc1ccccc1C(F)(F)F)C(O)c1ccccc1 (stereo not given)	-1.5
CCN(CC)c1ccc(/C=N/c2sc3c(c2C#N)C2CCN3CC2)c(O)c1	8.7
O=c1c2ccccc2[nH]c(=S)n1-c1ccc(Br)cc1	0.4
O=Cc1cn(Cc2cccc([N+](=O)[O-])c2)c2ccccc12	5.2
CC(C)OC1CCCC(O)C1CC(=O)O (stereo not given)	7.8
N=c1sccn1Cc1ccc(Cl)cc1Cl	7.9
COc1ccccc1OCCCn1cc(C(=O)C2CC2)c2ccccc21	-0.7
O=S(=O)(c1ccc(Cl)cc1)N1CCCCC1c1cccnc1 (stereo not given)	9.1
CC(=O)NC(Cc1ccc(N(CCCl)CCCl)cc1)C(=O)NC(C(=O)O)C(C)C (stereo not given)	6.9
Clc1ccc2c(c1)C(c1ccccc1Cl)=NCc1nnc(Br)n1-2	9.4
CCC1(C)OC(c2ccccc2)=C/C(=C/C=C2C(=O)NC(=O)NC2=O)O1 (stereo not given)	13.7
CN1C(=O)C(=Cc2sc(=O)n(-c3ccccc3)c2N(C)C)C(=O)N(C)C1=O	30.5
Cc1cc(/C=C2\C(=O)NC(=O)N(c3ccc(F)cc3)C2=O)c(C)n1-c1cccc(C(=O)O)c1	4.4
N#Cc1ccc(NC(=O)CN2CCCC2)cc1Cl	5.8
Cc1ccc(-n2c(O)c(C=N)c(=O)n(-c3ccc(C)cc3)c2=O)cc1	16.9
c1ccc2sc(N3CCNCC3)nc2c1	9.8
O=c1[nH]c(=S)[nH]c(O)c1N=Nc1ccc(OC(F)F)cc1	17.3

Structural class: the entries above with an NH in an aromatic ring.
SMILES	Biofilm kill mix
c1ccc2c3c([nH]c2c1)CNCC3	6.3
C/C(=N\NC(=O)c1ccncc1)c1c(O)n(Cc2ccccc2)c(=O)[nH]c1=O	13.9
O=c1c2ccccc2[nH]c(=S)n1-c1ccc(Br)cc1	0.4
O=c1[nH]c(=S)[nH]c(O)c1N=Nc1ccc(OC(F)F)cc1	17.3

Going on with the list.
SMILES	Biofilm kill mix
CC(=O)CC(c1ccccc1[N+](=O)[O-])c1c(O)c2ccccc2oc1=O (stereo not given)	22.1
CCN(N=Nc1nonc1OC)c1nonc1OC	-2.9
C=CCn1c(O)c(/C=C2/C=CC=N2)c(=O)[nH]c1=O	8.3
CSc1ccc(CN2CCN(C(=O)COc3ccc(C)cc3)CC2)cc1	3.8
O=P(O)(O)Cc1c(Cl)cccc1Cl	6.6
COc1ccc(C(=O)C2CCCN(Cc3ccc(C)s3)C2)cc1OC (stereo not given)	10.6
O=C1NC(=O)N(CCC2=CCCCC2)C(=O)/C1=C/c1cccs1	26.3
CSc1ccc(CN2CCN(Cc3ccccc3Cl)CC2)cc1	11.3
O=C(CF)NC(NC(=S)Nc1ccccc1O)C(Cl)(Cl)Cl (stereo not given)	13.7
C=CCn1c(O)c(/C(C)=N/N2CCCCCC2)c(=O)[nH]c1=O	28.8
CC/C(=N\N1CCCCC1)c1c(O)[nH]c(=O)[nH]c1=O	19.6
COCCNC(=O)CN1C(=O)CN=C(c2ccccc2)c2ccccc21	14.5

Reprinted from the part before: three entries, followed by the next part.
SMILES	Biofilm kill mix
C=CCn1c(O)c(/C(C)=N/N2CCCCCC2)c(=O)[nH]c1=O	28.8
CC/C(=N\N1CCCCC1)c1c(O)[nH]c(=O)[nH]c1=O	19.6
COCCNC(=O)CN1C(=O)CN=C(c2ccccc2)c2ccccc21	14.5
CCOC(=O)C1=Nc2ccccc2/C1=C\c1c(O)n(C)c(=O)n(C)c1=O	29.6
COc1ccc(-n2c(SCCN(C)C)nc3ccccc3c2=O)cc1	3.7
CN1CCN(c2c(C#N)c(C(F)(F)F)nn2C)CC1	4.8
O=C1NC(=O)C(=Cc2csc3ccccc23)C(=O)N1	13.4
CCN1CCN(C(c2cccs2)C(C)NC(=O)Oc2ccccc2)CC1 (stereo not given)	7.6
O=C1CCN(C(=O)CCCn2c(=O)oc3ccccc32)CC1	12.4
O=c1[nH]c(=O)n(-c2ccccc2)c(O)c1/C=C1/C(c2ccccc2)=Nc2ccccc21	13.1
COP(=O)(OC)C1(O)C(=O)Nc2ccc(Br)cc21 (stereo not given)	4.9
CCOC(=O)c1cc2c(cn1)[nH]c1ccccc12	10.1
CN(CCOc1ccc(C=C2C(=O)NC(=O)NC2=O)cc1)c1ccccn1	3.8
CN(C)C(=O)Oc1cccc(NC(=O)N2CCOCC2)c1	2.8
CCCn1cc2c3c(cccc31)C1CC(C)CN(C)C1C2 (stereo not given)	10.7
COc1ccc(OC)c(-n2c(O)c(C=Nc3c(C)n(C)n(-c4ccccc4)c3=O)c(=O)[nH]c2=S)c1	14.1
CCOC(=O)C1(c2ccccc2)CCN(CC(=O)Nc2ccc(C)cc2)CC1	13.1
c1ccc(CNCCc2ccc3c(c2)OCO3)nc1	15.9
CCC(=NCCc1ccccc1)c1c(O)n(C)c(=O)n(C)c1=O	24.9
CN(C)c1ccc(/C=C/C=C/c2sc3ccccc3[n+]2C)cc1	14.8
CC(=O)NC(Cc1ccc(N(CCCl)CCCl)cc1)C(=O)O (stereo not given)	7.8
CSc1ccc(CN2CCN(C(=O)COc3cccc(C)c3)CC2)cc1	15.7
Cc1cc(NC(=O)CCl)nn1C	11.8
CC(C)(C)NS(=O)(=O)c1ccc(OCC(=O)N2CCN(Cc3ccccc3)CC2)cc1	22.7
COc1ccc(NP(=O)(Oc2ccccc2OC)Oc2ccccc2OC)cc1	8.7
CC1(C)C2([N+](=O)[O-])CN3CN(C2)CC1([N+](=O)[O-])C3	13.0
CC(C)CCCn1c(O)c(/C=C2/C=CC=N2)c(=O)[nH]c1=O	15.7
Cc1ccc(/C=C2\C(=O)NC(=O)N(Cc3ccccc3Cl)C2=O)o1	-1.8
CCCC(=O)OCC[N+](C)(C)C	15.8
OC(c1ccccc1)(c1ccccc1)c1ccncc1	19.0
NC(=O)c1c(NC(=O)c2ccc(S(=O)(=O)N(CCCl)CCCl)cc2)sc2c1CCCCC2	12.1
NC(=O)c1ccc(N=Nc2c(O)[nH]c(=O)[nH]c2=O)cc1	12.7
COc1ccc(CCNC2CCCCC2)cc1	3.2
Cc1cc(/C=C2\C(=O)NC(=O)N(Cc3ccccc3)C2=O)c(C)n1C1CC1	10.5
CC1=CC(=O)OC2CC3OC4C[C@@H](C)C5OC6CC7O[C@]8(C)C/C=C\C9OC%10CC%11OC(CC(C)CO)CC(O)[C@]%11(C)OC%10CC9OC8C[C@]7(C)O[C@]6(C)CCC5OC4C[C@]3(C)OC12 (stereo not given in full)	19.4
Cc1cc(C)cc(-n2c(C)cc(/C=C3\C(=O)NC(=O)N(C)C3=O)c2C)c1	12.7
CCOC(=O)C(O)(c1ccc(N(C)C(=O)c2ccc(Cl)c(Cl)c2)cc1)C(F)(F)F (stereo not given)	13.8
CN1CCN(c2nc([N+](=O)[O-])nn2C)CC1	5.3
N#C/C(=C(/O)c1ccc(S(=O)(=O)N(CCCl)CCCl)cc1)c1nc2ccccc2[nH]1	17.2
O=[N+]([O-])[N-][n+]1cnn(Cc2ccccc2)c1	9.5
COc1ccc(NP(=O)(Oc2ccc(Cl)cc2)Oc2ccc(Cl)cc2)cc1OC	6.7
COC(=O)CNC(=O)c1cn(CCC#N)nc1-c1ccc(F)cc1	21.3
C=C(C=O)CC1CC(O)[C@]2(C)OC3CC4OC5C[C@]6(C)O[C@]7(C)CCC8OC9C[C@]%10(C)OC%11C(C)=CC(=O)OC%11CC%10OC9C[C@@H](C)C8OC7CC6O[C@]5(C)CC5OC5C4OC3CC2O1 (stereo not given in full)	9.7
C[C@@]1(CO)[C@H](O)CC[C@@]2(C)[C@H]1CC[C@H]1C[C@@H]3C[C@@]12CC[C@]3(O)CO	17.3
CC1CN=C(Nc2ccc(F)cc2)S1 (stereo not given)	16.4
COc1cc2c(cc1OC)C(c1c(O)n(CCc3ccccc3)c(=S)[nH]c1=O)NCC2 (stereo not given)	15.5
CCc1ccc(CNCCc2ccc(F)cc2)cc1	3.5
c1cncc(CNCCc2c[nH]c3ccccc23)c1	9.4
CCCCCCNC(=O)N[C@H](Cc1ccc(O)cc1)C(=O)NCCC[C@H]1CN2C(=NC[C@H]2CCC)N1CC1CCC1	4.3
O=C(COC(=O)c1cccc(O)c1)Nc1ccc(Cl)cc1C(=O)c1ccccc1	-2.4
CNS(=O)(=O)c1ccc(N=Cc2c(O)n(-c3cccc(C)c3)c(=O)[nH]c2=O)cc1	1.7
CN(C(=O)c1ccc(Cl)nc1)C1(c2ccccc2Cl)CCCCC1=O (stereo not given)	14.8
C(=N\NC1=NCCCCC1)/c1c[nH]c2ccccc12	15.1
CC1CCC(C(C)C)C(OC(=O)Cn2c(COc3ccccc3)[n+](C)c3ccccc32)C1 (stereo not given)	9.9
O=C(c1cc(-c2ccccc2)on1)N1CCC2(CC1)OCCO2	13.7
CCCCCc1nc2ccccc2c(=O)n1-c1ccccc1[N+](=O)[O-]	9.9
Cc1ncc(CN2CCCC(C(=O)c3cccc(Cl)c3)C2)s1 (stereo not given)	18.8
COc1cc(-n2c(=S)[nH]c3ccc(C)cc3c2=O)c(Cl)cc1Cl	3.0
CN1CCN(c2ccc([N+](=O)[O-])c(NCC3CCCO3)c2)CC1 (stereo not given)	19.6
O=C1NC(=S)NC(=O)C1=Cc1cccn1-c1ccc(O)cc1	22.0
COc1cccc(O)c1CN1CCCC(C(=O)c2sccc2C)C1 (stereo not given)	6.3
COc1ccc(/C=C/C(=O)c2c(O)n(CCC3=CCCCC3)c(=O)[nH]c2=O)cc1OC	20.4
COc1ccc(OC)c(C(c2c(O)c3ccccc3oc2=O)c2c(C)n(C)n(-c3ccccc3)c2=O)c1 (stereo not given)	10.3

Molecules shown so far with an aryl thioether with sulfur outside any ring (four):
SMILES	Biofilm kill mix
CSc1ccc(CN2CCN(C(=O)COc3ccc(C)cc3)CC2)cc1	3.8
CSc1ccc(CN2CCN(Cc3ccccc3Cl)CC2)cc1	11.3
COc1ccc(-n2c(SCCN(C)C)nc3ccccc3c2=O)cc1	3.7
CSc1ccc(CN2CCN(C(=O)COc3cccc(C)c3)CC2)cc1	15.7

Further entries follow.
SMILES	Biofilm kill mix
O=c1[nH]c(=S)[nH]c(O)c1N=Nc1ccc2c(c1)OCO2	11.6
COc1ccc(Cl)cc1C(=O)C1CCCN(CCO)C1 (stereo not given)	10.3
O=[N+]([O-])c1cccc(CN2CCN(Cc3ccc(Cl)cc3)CC2)c1	6.8
O=C1NC(=O)N(Cc2ccco2)C(=O)/C1=C/c1ccc(-c2cccc([N+](=O)[O-])c2)o1	9.2
Cc1ccsc1C(=O)C1CCCN(Cc2cnn(C(C)C)c2)C1 (stereo not given)	24.2
O=c1[nH]c(=O)n(CCc2ccccc2)c(O)c1/C=N/N1CCOCC1	16.3
COc1ccc(C2C([N+](=O)[O-])=C(N)Oc3c2c(=O)oc2ccccc32)cc1 (stereo not given)	15.6
CCN1CCN(c2nc([N+](=O)[O-])nn2C)CC1	-1.7
CC(C)c1ccc(-n2c(O)c(/C=N/NC(=O)c3ccccc3O)c(=O)[nH]c2=S)cc1	-4.1
Cc1nc(CCl)cc(=O)[nH]1	13.2
CN1CCCC(C(O)(c2ccccc2)c2ccccc2)C1 (stereo not given)	0.9
CS(=O)(=O)N1CCN(C(=N)N[N+](=O)[O-])CC1	1.6
Cc1ccc(N2C(=O)NC(=O)/C(=C\c3ccc(N4CCOCC4)cc3)C2=O)cc1	9.2
CCOC(=O)c1c(C)n(CC(O)CN2CCOCC2)c2cc(Br)c(OC)cc12 (stereo not given)	16.9
CCCCCCC(=O)c1c(O)n(-c2ccc(OC)cc2)c(=O)[nH]c1=O (tested in a mixture with another compound)	22.4
Cc1ccc(-c2nc3ccccc3c(=O)n2-c2cccc(C)n2)cc1	3.1
O=C(c1ccc(-c2ccccc2)c(F)c1)C1CCCN(CCO)C1 (stereo not given)	4.2
O=C1NC(=O)N(c2ccc3c(c2)OCO3)C(=O)/C1=C/c1ccsc1	5.0
O=C(c1cc(F)ccc1F)C1CCCN(CCCc2ccccc2)C1 (stereo not given)	10.7
O=c1c2ccccc2nc(SCC2CCCCO2)n1-c1ccccc1 (stereo not given)	12.5
COc1ccc(-n2c(/C=C/c3ccc4c(c3)OCO4)nc3ccccc3c2=O)cc1	16.8

Only part of the results is shown, so the mix of outcomes need not match the whole.
